Screening results deposited in PubChem BioAssay by National Center for Advancing Translational Sciences (NCATS).
Rango dissoc inh – qHTS Assay for Inhibitors of RanGTP induced Rango (Ran-regulated importin-beta cargo) - Importin beta complex dissociation; Snurportin-1 (Homo sapiens) + GTP-binding nuclear protein Ran (Homo sapiens) + Importin …; Biochemical FRET Rango-importin beta, RanGTP-induced dissociation; Potency, µM (doses to about 46.1 µM), without a hit: at the highest dose activity change, negative = inhibition; 340,000 compounds, 0.071% hits; AID 540253, 2011; active means falling FRET ratio curve, often poorly fitted, with flat reads before Ran was added; inconclusive means other falling curves, or compound fluorescence or quenching; inactive means flat or rising ratio curve;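 note: potency is the fitted concentration of half-maximal effect; % of control where 0% means no effect; nearly all actives have a fitted effect of over 45% in size; -100% = wells without RanGTP and RCC1; the record marks most hits as doubtful in a second field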
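Rango FRET biosensor (snurportin-1 IBB flanked by N-terminal EYFP and C-terminal CFP10) at 0.1 uM, with 0.25 uM importin beta in PBS, 1mM DTT, 0.02% Tween-20, 0.1% BSA. 0.6 uM Ran, 2mM GTP and 0.2 uM RCC1 were then added for 45 min at room temperature. Inhibition read as loss of FRET rise.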
miR-21 FLuc – qHTS Assay for Modulators of miRNAs and/orActivators of miR-21; HeLa miR-21 FLuc reporter, luciferase, 48 h; Potency, µM (highest dose often 38.3 µM), without a hit: at the highest dose reporter change, positive = more light; 340,000 tested, under 10 active; AID 2288, 2010; active = well fitted rising curve with a large enough effect; inconclusive = small, poorly fitted or top-dose-only effect; inactive = no such curve, though single readings can be large or run the other way;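 note: % of control where 0% means no effect; miR-21 action dims this reporter so a rising signal means less miR-21 action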
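Using DMEM plus 10% FBS, HeLa miR-21-FLuc cells are incubated with test compounds (final up to about 40uM) for 48 hours; firefly luciferase signal is then imaged following reagent-mediated lysis.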
Rango complex inh – qHTS Assay for Inhibitors of Rango (Ran-regulated importin-beta cargo) - Importin beta complex formation | Importin subunit beta-1 (Homo sapiens), Q14974 | Rango CFP/YFP FRET sensor + importin beta, 45 min | Potency, µM (highest dose often 92.2 µM), for inactives: top-dose inhibition of complex formation | 340,000 compounds, 0.031% hits; active = rising FRET ratio curve, often small or poorly fitted; inconclusive = mostly compound fluorescence or quenching in the first reads; inactive = flat curves in all reads;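 note: potency is the fitted concentration of half-maximal effect; 0% = DMSO wells and 100% = buffer wells lacking importin beta; nearly all actives have a fitted effect of over 15% in size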
Target sequence (Q14974 whole entry, looked up): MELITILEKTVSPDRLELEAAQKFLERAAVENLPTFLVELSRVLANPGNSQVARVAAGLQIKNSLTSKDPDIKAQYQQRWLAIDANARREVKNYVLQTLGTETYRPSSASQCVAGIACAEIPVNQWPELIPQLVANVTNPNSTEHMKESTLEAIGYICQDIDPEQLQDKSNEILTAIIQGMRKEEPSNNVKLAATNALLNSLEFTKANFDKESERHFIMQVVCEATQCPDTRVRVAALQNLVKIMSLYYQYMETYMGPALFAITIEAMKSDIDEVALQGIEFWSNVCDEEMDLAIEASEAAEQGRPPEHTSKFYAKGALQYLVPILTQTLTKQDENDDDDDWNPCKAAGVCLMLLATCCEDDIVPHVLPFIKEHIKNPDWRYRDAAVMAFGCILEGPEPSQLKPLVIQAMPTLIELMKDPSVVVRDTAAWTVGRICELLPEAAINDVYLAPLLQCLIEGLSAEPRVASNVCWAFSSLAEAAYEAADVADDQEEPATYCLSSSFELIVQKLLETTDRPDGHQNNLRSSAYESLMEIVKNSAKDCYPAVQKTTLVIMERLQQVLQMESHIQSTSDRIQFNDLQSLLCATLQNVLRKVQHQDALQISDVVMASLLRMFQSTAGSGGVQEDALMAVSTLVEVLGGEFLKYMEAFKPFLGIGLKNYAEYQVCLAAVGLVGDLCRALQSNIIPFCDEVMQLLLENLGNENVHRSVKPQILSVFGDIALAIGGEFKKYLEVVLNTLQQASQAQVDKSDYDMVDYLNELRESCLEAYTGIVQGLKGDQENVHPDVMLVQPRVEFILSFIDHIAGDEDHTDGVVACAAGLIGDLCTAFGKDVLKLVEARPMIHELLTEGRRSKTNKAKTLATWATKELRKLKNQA
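FRET biosensor Rango (snurportin 1 IBB between N-terminal EYFP and C-terminal Cerulean), 50 nM in PBS/1 mM DTT/0.02% Tween-20/0.1% BSA, preincubated 5 min RT with compound; 0.125 microM importin beta added, 45 min RT, CFP/YFP FRET ratio read.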
GLA inh pH 4.5 – qHTS Assay for Inhibitors of Human alpha-Galactosidase at pH 4.5. purified enzyme, 4-MU-alpha-Gal fluorescence, pH 4.5. activity change, negative = inhibition, % at 105 µM. 230,000 tested, under 10 active. AID 1467, 2008; inconclusive = small, poorly fitted or top-dose-only inhibition, or a rising curve; inactive = flat fitted curve, though single readings scatter; no compound was filed as active;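 note: 0% = full activity with enzyme and -100% = basal without enzyme; dose as in the result columns while the protocol names 77 µM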
* marks the source's active call; other numbers are inactive results; ? = inconclusive; nt = not tested or not shown. These rows are one share of the data; rates above refer to the full screens.

SMILES	Rango dissoc inh	miR-21 FLuc	Rango complex inh	GLA inh pH 4.5
Oc1c(Cl)cc(Cl)cc1/C=N/c1nccs1	?	0%	?	4
CC(=O)c1ccc(N2Cc3ccccc3C2=NC(=O)c2cccs2)cc1	-3%	-12%	-4.3%	1
COc1ccc(-c2[nH]ncc2CN2CCN(c3ccc(F)cc3)CC2)cc1	-7%	-1%	5.3%	-11
COc1cccc(-c2sc3ccc(OC)cc3c2C#CCCO)c1	2%	nt	-3.7%	nt
COc1ccc(NC(=O)C2CCCN(C(=O)Nc3ccc(F)cc3)C2)cc1 (centres undefined)	-20%	3%	-2.0%	nt
Cn1cnc2cc(NC(=O)COc3ccccc3)ccc21	10%	-58%	1.8%	nt
Cc1ccc(-c2nc(-c3ccncc3)no2)c(C)c1	12%	-57%	-0.1%	nt
O=C1CCC(C(=O)N(Cc2ccco2)C2(C(=O)NC3CCCC3)CCCCC2)N1 (centres undefined)	-6%	7%	0.4%	9
COCCNC(=O)c1ccc(C)c(S(=O)(=O)Nc2ccc(C)cc2)c1	-1%	-5%	0.4%	4
Nc1nc(OCC2CCCCC2)c2[nH]cnc2n1	-22%	-12%	1.6%	nt
Cc1cc2ncn(S(=O)(=O)N3CCCCC3)c2cc1C	-13%	-9%	0.3%	2
O=C(Oc1ccc([N+](=O)[O-])cc1)c1ccc2ccccc2n1	1%	-28%	0.1%	-6
Nc1ccccc1C#Cc1ccc([N+](=O)[O-])cc1	-29%	nt	1.3%	nt
O=C(N/N=C/c1ccoc1)c1ccc(Br)cc1	-14%	-13%	0.2%	nt
O=C(NC1CCCc2ccccc21)C1CCN(S(=O)(=O)c2cccc3nsnc23)CC1 (centres undefined)	?	-5%	-1.9%	3
COc1cccc(C2=CC(=O)CC(C)(C)C2)n1	-8%	nt	0.3%	nt
CCOC(=O)C1=C(COC(=O)/C=C/c2ccc([N+](=O)[O-])cc2)NC(=O)NC1C (centres undefined)	?	nt	?	nt
O=C(CCC(=O)N1CCc2ccccc21)Nc1ccccc1	-11%	-5%	-1.9%	1
CCCCn1c(N)c(N(CCOC)C(=O)c2ccc(Br)o2)c(=O)[nH]c1=O	-1%	nt	-0.2%	nt
O=C(NCCc1ccc(F)cc1)c1cc2ccccc2oc1=O	12%	-9%	-1.1%	nt
Cc1nn(-c2ccccc2)c2c1C(O)n1c(nc3ccccc31)S2 (centres undefined)	-27%	4%	-4.9%	3
CC1(C(=O)O)CCC(C(=O)Nc2ccc(OC(F)(F)Cl)cc2)C1(C)C (centres undefined)	22%	-1%	1.0%	nt
COc1cc2c(C(=O)N3CCN(C)CC3)c(C)oc2cc1Br	-14%	-8%	0.2%	-2
Cc1nc(SCC(=O)NCc2ccc(F)cc2)c2c(=O)n(C)c(=O)n(C)c2n1	-17%	3%	0.1%	-2
Cc1ccc(C(C)C)c(OCC(=O)c2c(O)c3ccccc3oc2=O)c1	2%	nt	3.3%	nt

Later entries
SMILES	Rango dissoc inh	miR-21 FLuc	Rango complex inh	GLA inh pH 4.5
CC(C)(C)NC(=O)NC(=O)CSc1ccc(S(=O)(=O)N2CCOCC2)cn1	11%	nt	-3.7%	nt
CC(C)C(=O)Nc1ccc(C(=O)N2CCN(C(=O)c3ccco3)CC2)cc1	nt	0%	nt	-2
COc1cc(NC(=O)c2ccc(Br)o2)ccc1NC(=O)c1ccccc1Cl	0%	0%	-1.3%	-14
O=C(O)CCc1ccc(-c2ccc(Cl)cc2)n1CC(=O)Nc1ccccc1	0%	-2%	2.7%	nt
COc1cc2c(cc1OC)C(c1cccc(F)c1)CC(=O)N2 (centres undefined)	1%	-5%	2.9%	nt
COCCNC(=O)c1ccc(NS(=O)(=O)c2cc(C)ccc2C)cc1	-1%	-3%	-2.4%	10
Cc1occc1C(=O)OCC(=O)Nc1ccc(F)cc1	9%	-33%	1.5%	14
CCc1ccc2c(c1)C1(NN=C(c3ccccc3)S1)C(=O)N2 (centres undefined)	-35%	8%	?	6
O=C(N/N=C/c1ccc(F)cc1)c1c(O)c2ccccc2[nH]c1=O	-1%	-5%	4.5%	-1
Cc1cc(C)n2nc(SCCOc3ccccc3F)nc2n1	1%	-65%	5.9%	-2
CC(C(=O)Nc1ccccc1Cl)N(c1ccccc1)S(C)(=O)=O (centres undefined)	7%	-4%	2.6%	2
CCn1c(C(=O)O)c(S(=O)(=O)c2ccc(Cl)cc2)c2ccccc21	-7%	4%	6.3%	nt
Oc1ccc(C(=S)N2CCN(c3cccc(Cl)c3)CC2)cc1	-1%	11%	-2.8%	0
COc1cccc(OC)c1C(=O)NC(=O)Nc1c(F)c(F)c(F)c(F)c1F	-23%	4%	-1.8%	6
O=C(NCc1cccc(Cl)c1)c1ccc2nc[nH]c2c1	-4%	-14%	-2.3%	1
CCOC(=O)CSC1=C(C#N)C(=O)NC2(CCCCC2)S1	-7%	0%	-4.0%	7
CC(=O)Nc1cc(C(=O)N(C)Cc2ccco2)ccc1Sc1ccc(Cl)cc1	-17%	1%	-2.6%	-4
Cc1cc(C)c(S(C)(=O)=O)c(=O)[nH]1	20%	-3%	-0.2%	-1
N=c1oc2ccc([N+](=O)[O-])cc2cc1C(=O)NCc1ccccc1	-12%	1%	4.1%	nt
Cc1cccc(OCCCC(=O)Nc2nnc(C3CCCO3)s2)c1C (centres undefined)	-7%	-10%	0.0%	nt
Cc1nnc(SCC(=O)NC23CC4CC(CC(C4)C2)C3)s1	1%	-11%	-2.9%	0
Cc1ccc(NC(=O)CCC(=O)N2CCC(C)CC2)c([N+](=O)[O-])c1	24%	-4%	-5.7%	nt
Cc1ccc(C(=O)NC2(O)C(=O)c3ccccc3C2=O)cc1C	2%	11%	3.4%	2
COc1ccc(C2/C=C\CN(C(=O)NC34CC5CC(CC(C5)C3)C4)CC(=O)N2Cc2ccc(F)cc2)cc1 (centres undefined)	-12%	15%	?	1
CCn1c(=N)n(CC(=O)c2ccco2)c2ccccc21	-12%	11%	-0.4%	-2

(listing goes on)
SMILES	Rango dissoc inh	miR-21 FLuc	Rango complex inh	GLA inh pH 4.5
CC(C)(C)N(CC#CCC(O)(c1ccccc1)C1CCCC1)CCO (centres undefined)	-3%	1%	0.7%	0
COc1ccc(CNCCc2ccc(Cl)cc2)cc1OCc1ccccc1	-7%	26%	-2.4%	-1
CC(C)CNc1c(N)n(CC(C)C)c(=O)[nH]c1=O	-17%	-2%	?	2
C/C(CCc1ccc2c(c1)OCO2)=N\N=C1\NC(=O)CC(C(=O)Nc2ccccc2)S1 (centres undefined)	?	-4%	-1.1%	-17
CCOC(=O)c1ccc(Nc2nc(C)nc3c2nnn3Cc2ccccc2)cc1	-12%	-5%	1.3%	nt
CN(C)S(=O)(=O)c1ccc(N2CCCC2)c(C(=O)OCC(=O)NC2(C#N)CCCCC2)c1	-12%	nt	-0.4%	nt
NNC(=O)c1ccc(CSc2nc3ccccc3s2)cc1	-7%	-23%	-1.7%	4
CCCCn1c(N)c(N(CC(C)C)C(=O)C2CC(=O)N(CCc3ccccc3)C2)c(=O)[nH]c1=O (centres undefined)	1%	-1%	-0.5%	nt
Cc1c(C#N)c2ccccc2n1CC(=O)NC(C)c1ccccc1 (centres undefined)	16%	-1%	-0.8%	5
CCCCC1=NN2C(=N)CC(=O)N=C2S1	-19%	-1%	?	-9
O/N=C/c1ccc(-c2ccccc2OC(F)(F)F)o1	7%	-11%	-0.4%	-5
NS(=O)(=O)c1ccc(CCNC(=O)CN2CCC(Cc3ccccc3)CC2)cc1	0%	19%	0.9%	-1
CCn1c(COc2ccc(C)cc2)nnc1SCC(=O)NNC(=O)c1ccc(OC)cc1	10%	-3%	0.8%	6
Cc1ccc(NC(=O)c2ccc3c(c2)[nH]c(=O)n3C(C)C)cc1	-9%	-2%	-2.1%	-5
O=C(COc1cccc(OC(F)F)c1)Nc1ccc(SC(F)F)cc1	0%	-7%	1.2%	8
CCN1C(=O)C(NC(C)=O)c2cc(Br)ccc21 (centres undefined)	-2%	1%	-0.4%	-3
CCCN(CCC)C(=O)C1CCC(CNS(=O)(=O)c2cccc3nsnc23)CC1 (centres undefined)	2%	4%	-0.9%	nt
Cc1nn(CC(=O)NC(C)c2ccccc2)c(=O)c2ccccc12 (centres undefined)	-1%	0%	-2.8%	4
Nc1nc(SCc2ccccc2)c2ncn(Cc3ccccc3)c2n1	1%	nt	-1.5%	nt
CCOC(=O)C1=C(C)NC(=S)NC1c1ccc(-c2cccc(Cl)c2C)o1 (centres undefined)	1%	16%	0.2%	-1
Cc1ccc(-c2nc3ccccc3s2)cc1NC(=S)NC(=O)/C=C/c1ccco1	3%	-71%	0.4%	3
O=C(N1CCOCC1)N1CCC(n2nnc3ccccc32)CC1	-2%	-2%	-2.8%	-4
COc1ccc(CC(=O)Nc2nnc(C(C)(C)C)s2)cc1OC	-9%	3%	2.7%	4
CCN1CCN(S(=O)(=O)c2cccc([N+](=O)[O-])c2)CC1	-8%	-8%	-3.0%	4
CCCn1nnc(NC(=O)/C=C/c2cc(Br)ccc2OC)n1	-17%	-7%	-0.2%	-14

Next section.
SMILES	Rango dissoc inh	miR-21 FLuc	Rango complex inh	GLA inh pH 4.5
CCOC(=O)C1CCCN(c2c(NCC3CCCN3CC)c(=O)c2=O)C1 (centres undefined)	23%	0%	-6.9%	-3
CC(C)(C)n1nc2c(c1NC(=O)COc1ccc3ccccc3c1)CS(=O)(=O)C2	-17%	-5%	1.6%	-7
Cc1cc(C(=O)COC(=O)c2cccc(O)c2)c(C)n1C1CC1	-8%	nt	-3.2%	nt
O=C(Cc1cccs1)Nc1ccc(F)cc1F	-2%	-7%	0.0%	nt
CCC(=O)Nc1c2c(nn1-c1ccccc1C)CSC2	0%	-9%	-7.1%	-6
CCn1nc(C)c(/C=N/NC(=O)CSc2ccccn2)c1C	0%	-41%	4.4%	-10
O=[N+]([O-])c1ccc(CS(=O)c2ccccc2)cc1 (centres undefined)	-5%	nt	0.9%	nt
COc1cc(/C=C/C(=O)O)cc(S(=O)(=O)Nc2ccccc2C(=O)NCc2ccco2)c1OC	13%	nt	2.1%	nt
O=C(COC(=O)/C=C/c1ccc(Cl)cc1)NC1CC1	-19%	nt	-0.8%	nt
CCN1C(=S)SC(=O)C1=C1C=C(C)N(CCO)C(C)=C1	?	-50%	?	-22
CCOC(=O)c1c(-c2cccs2)csc1NC(C)=O	2%	-13%	-5.8%	-7
CCOC(=O)c1csc(NC(=O)Nc2cccc(OC)c2)n1	nt	1%	nt	12
COc1ccc(NC(=O)c2sc3nc(N4CCCC4)c4c(c3c2N)CC(C)(C)OC4)c(OC)c1	-3%	-12%	-2.3%	nt
COc1ccc(C(=O)Nc2nnc(C)s2)cc1S(=O)(=O)N1CCOCC1	-6%	nt	-1.0%	nt
O=C(O)CCN1C(=O)/C(=C/c2cn(-c3ccccc3)nc2-c2cccs2)SC1=S	-6%	1%	2.8%	7
O=c1c(CN2CCN(c3ccccn3)CC2)coc2ccccc12	-11%	-36%	-4.4%	5
CS(=O)(=O)c1cnc2c(S(=O)(=O)c3ccccc3)cnn2c1N	8%	0%	0.1%	-4
COc1ccccc1OCCNC(=O)CN1C(=O)NC2(CCCC2)C1=O	-4%	nt	0.0%	nt

One compound at a time, as listed above. Screens in order: Rango dissoc inh, miR-21 FLuc, Rango complex inh, GLA inh pH 4.5
CC1(C(=O)O)CCC(C(=O)Nc2ccc(OC(F)(F)Cl)cc2)C1(C)C (centres undefined) reads 22%, -1%, 1.0%, nt
O/N=C/c1ccc(-c2ccccc2OC(F)(F)F)o1 reads 7%, -11%, -0.4%, -5
O=C(COC(=O)/C=C/c1ccc(Cl)cc1)NC1CC1 reads -19%, nt, -0.8%, nt
COc1cc2c(cc1OC)C(c1cccc(F)c1)CC(=O)N2 (centres undefined) reads 1%, -5%, 2.9%, nt
Cc1nc(SCC(=O)NCc2ccc(F)cc2)c2c(=O)n(C)c(=O)n(C)c2n1 reads -17%, 3%, 0.1%, -2
